# MenB inh = blocks the Mycobacterium tuberculosis MenB enzyme. hit rate 0.43% among 100,000. inhibition, %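 (about 12 µg/mL by stock and volumes)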. MenB enzyme assay, absorbance read-out; some hits fall short of the stated cut. AID 540299;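 active = mean of two replicates above 30%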;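 note: 0% = no compound and 100% = wells with inactive enzyme; the first replicate is given; strong numbers were not always called active; inactives centre near -10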
# Polio RdRp inh = inhibitors of poliovirus RNA polymerase binding and polymerization | P03300 | poliovirus polymerase elongation, fluorescence polarization; stronger effect = lower value | % elongation, % (compound at 16.7 µg/mL) | hit rate 0.66% among 150,000; in the data active = % elongation below about 90%; note: some results filed as inactive read as strong as hits
# Target sequence (P03300 1749-2209 limits assumed): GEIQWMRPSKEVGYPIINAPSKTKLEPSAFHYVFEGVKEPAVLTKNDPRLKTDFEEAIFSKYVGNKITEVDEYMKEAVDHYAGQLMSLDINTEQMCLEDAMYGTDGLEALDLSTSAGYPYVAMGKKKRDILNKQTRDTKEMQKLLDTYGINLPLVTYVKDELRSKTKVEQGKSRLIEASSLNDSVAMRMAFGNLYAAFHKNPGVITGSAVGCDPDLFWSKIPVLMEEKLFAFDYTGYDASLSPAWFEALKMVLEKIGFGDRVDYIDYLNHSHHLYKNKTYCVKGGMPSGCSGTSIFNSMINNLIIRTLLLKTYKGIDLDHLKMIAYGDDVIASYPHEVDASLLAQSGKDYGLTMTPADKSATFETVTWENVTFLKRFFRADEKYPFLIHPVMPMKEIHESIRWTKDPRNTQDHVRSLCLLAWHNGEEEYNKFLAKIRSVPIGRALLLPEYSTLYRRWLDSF
# MbtI inh = blocks the Mycobacterium tuberculosis siderophore enzyme MbtI | hit rate 0.89% among 100,000 | AID 493033 | purified MbtI enzyme, fluorescence intensity read-out | inhibition, %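 (about 17 µg/mL by stock and volumes)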 | P9WFX0;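 active = above 50% in both replicates, above 80% if mildly self-fluorescent; inactive = the rest, strongly fluorescent compounds included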;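 note: 0% = mean of negative and 100% = mean of positive controls; one replicate is shown; some compounds called inactive have numbers as strong as hits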
# Target sequence (P9WFX0 whole entry, looked up): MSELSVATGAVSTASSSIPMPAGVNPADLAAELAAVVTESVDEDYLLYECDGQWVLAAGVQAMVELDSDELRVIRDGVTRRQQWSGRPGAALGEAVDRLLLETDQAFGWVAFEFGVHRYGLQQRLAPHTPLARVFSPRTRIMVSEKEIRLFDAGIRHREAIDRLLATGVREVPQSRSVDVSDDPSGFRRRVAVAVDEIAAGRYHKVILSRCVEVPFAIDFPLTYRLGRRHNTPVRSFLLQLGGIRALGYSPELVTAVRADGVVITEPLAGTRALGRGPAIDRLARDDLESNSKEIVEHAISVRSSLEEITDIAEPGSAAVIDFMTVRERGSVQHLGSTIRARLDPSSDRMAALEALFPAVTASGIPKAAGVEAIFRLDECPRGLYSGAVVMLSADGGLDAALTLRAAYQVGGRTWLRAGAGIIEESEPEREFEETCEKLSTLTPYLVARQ
# Polio RdRp inh intensity = further read-out of Polio RdRp inh, marked with its call; % elongation; measured here: total intensity read-out; formula for this scale not given here;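 total fluorescence in place of polarization; lower means less elongation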
# * marks the source's active call; other numbers are inactive results; . = not tested or not shown; & = joins results of further samples.
Compound	MenB inh	Polio RdRp inh	Polio RdRp inh intensity	MbtI inh
CCOc1ccc(CNC2CCCc3ccccc32)cc1 (configuration not stated)	-17	101	96	.
C1=Cc2nonc2C2C=C(c3ccccc3)N=C12 (configuration not stated)	-44	52	235	.
CCOC(=O)c1cn(Cc2ccc(Cl)cc2Cl)c2cc(C)nn2c1=O	-20	102	94	-25
CCOC(=O)C(=NCc1ccco1)NNc1cccc(C(F)(F)F)c1	-19	106	106	-1
CC1(C)CC(N=Cc2ccccc2O)CC(C)(C)N1	5	107	118	.
CC(=O)NC(c1ccccc1)n1nnc2ccccc21 (configuration not stated)	-28	101	105	-9
CCOC(=O)c1cc(-c2ccc(S(=O)(=O)N(C)CCCc3ccco3)s2)on1	-56	101	103	2
O=C(OC1CCCCC1=O)c1ccc2c(c1)C(=O)N(Cc1ccco1)C2=O (configuration not stated)	-16	109	110	-9
CCCCNC(=O)c1c[nH]c2ccc(C)cc2c1=O	-28	102	100	13
C=CCNC(=O)c1c(N)n(CCN2CCOCC2)c2nc3ccccc3nc12	-66	96	115	-106
CCCCSC(=O)Nc1ccccc1	-9	102	101	-5
O=C(CN1CCN(S(=O)(=O)c2cccs2)CC1)Nc1ccccc1Oc1ccccc1	-17	103	105	-9
O=C(c1cccs1)C1C2C(=O)C3OCC(O3)C12 (configuration not stated)	-15	102	104	.
C(=C\c1ccccc1)/CNc1ccc(N2CCOCC2)cc1	-52	102	101	-1
O=C(NCc1ccc2c(c1)OCO2)c1ccc2c(c1)C(=O)N(C1CCCCC1)C2=O	-12	100	102	-3
O=C(OC1CCCCC1=O)c1ccc2c(c1)OCO2 (configuration not stated)	-29	101	82	80

# 3 records drawn at random from the list so far, as already listed:
Compound	MenB inh	Polio RdRp inh	Polio RdRp inh intensity	MbtI inh
O=C(OC1CCCCC1=O)c1ccc2c(c1)C(=O)N(Cc1ccco1)C2=O (configuration not stated)	-16	109	110	-9
CCOc1ccc(CNC2CCCc3ccccc32)cc1 (configuration not stated)	-17	101	96	.
O=C(OC1CCCCC1=O)c1ccc2c(c1)OCO2 (configuration not stated)	-29	101	82	80

# Following part.
Compound	MenB inh	Polio RdRp inh	Polio RdRp inh intensity	MbtI inh
N#CC(C#N)=NNc1ccc(SC(F)F)cc1	-259	95	95	18
O=C(OCC(=O)N1CCCC1)c1ccco1	.	99	102	3
C=CCNC(=S)Nc1ccc2cn[nH]c2c1	-7	114	116	-15
O=C(O)CCCn1cnc2sc3c(c2c1=O)CCCC3	-63	102	101	-12
CC(=O)OCc1ccccc1Sc1ccccc1C(=O)NCc1ccccc1	-13	104	107	5
Cc1nc(=O)c(-c2ccccc2)c(C)n1CC1CCCO1 (configuration not stated)	-19	103	108	3
O=C(NCCc1nnc2ccc(N3CCCC3)nn12)c1ccccc1	-5	102	106	-7
CC(C)(C)c1cc(C#N)cc(C(C)(C)C)c1O	-26	99	102	-15
CCCN1CCSC1=Nc1ccccc1F	-3	105	110	-6
CCn1c(=O)n(CC)c2cc(NC(=O)CSc3nc4ccccc4[nH]3)ccc21	-8	100	101	7
Cc1ccc(CN2CCC(CNS(=O)(=O)c3cc(-c4cc(C)no4)ccc3C)C2)cc1 (configuration not stated)	-15	101	101	-5
COc1ccc(S(=O)(=O)c2cnc3cc4c(cc3c2N2CCC(C(N)=O)CC2)OCCO4)cc1	3	102	100	0
O=C(O)c1cc(-c2cccs2)nc2ccccc12	.	101	101	91
Cc1ccc(/C=N/NC(=O)c2ccccc2NS(=O)(=O)c2cccs2)o1	-10	103	109	-9
O=C(COC(=O)c1ccccn1)NC1CCCc2ccccc21 (configuration not stated)	12	.	.	3
Brc1ccc(N=Cc2ccc3c(c2)OCCO3)cc1	.	104	108	-2
CCOC(=O)c1cncc(C#CCOC(=O)Nc2cc(Cl)cc(Cl)c2)c1	-4	99	105	-1
CS(=O)(=O)N(Cc1ccccc1)c1ccccc1C(=O)Nc1cccc(Br)c1	-8	81	148	.
CN1C(=O)/C(=C(/C#N)C(N)=O)c2ccccc21	-27	102	102	.
CSc1ncccc1C(=O)OCc1c(C)noc1C	-17	109	110	-11
O=c1[nH]c(=S)[nH]c(O)c1N=Nc1ccc(S(=O)(=O)N2CCc3ccccc32)cc1	-52	107	107	10
Cc1ccc2nc(C(C)O)[nH]c2c1 (configuration not stated)	-2	97	96	-5
Cc1ccc(C=C2C(=O)OC(C)(C(C)(C)C)OC2=O)o1 (configuration not stated)	-60	101	100	6
CO/C([O-])=N/c1c[n+](-c2ccc(C)cc2)no1	2	103	109	.
CCN1CCN(C(=O)CS(=O)Cc2nc(-c3ccccc3)oc2C)CC1 (configuration not stated)	-13	102	107	10
CC(C)N(CCC#N)C(=S)Nc1ccc(S(=O)(=O)N2CCCCC2)cc1	-12	103	100	14
CCC(O)c1ccc2c(=O)c(-c3ccccc3F)coc2c1 (configuration not stated)	-7	98	97	.
Cc1nc(N)[nH]c(=O)c1Br	-14	105	102	-2
O=C1C=C(Nc2ncn[nH]2)CC(c2cccs2)C1 (configuration not stated)	-46	104	100	18
O=C1Cc2ccccc2C(=O)N1c1ccc(Br)cn1	-21	104	96	-7
CC(C)n1cnc2cc(NCc3ccc(Br)cc3)ccc21	-24	103	104	-9
CS(=O)(=O)c1ccccc1-c1nnc(NC(=O)C2CCCCC2)o1	-20	107	106	2
Cc1ccc(C)c2[nH]c(=O)c(CN(CCCN3CCCC3=O)S(=O)(=O)c3ccc(F)cc3)cc12	-3	103	103	-68
Cc1ccccc1/C=C1\CN(C)C/C(=C\c2ccccc2C)C1=O	-12	107	108	.
CCS(=O)(=O)N1CCCC(C(=O)NC2CC2)C1 (configuration not stated)	0	101	108	-6
O=C(Nc1cccnc1)C(c1ccccc1)c1ccccc1	-23	102	110	-8
COc1oc(-c2ccc(F)cc2)nc1C(F)(F)F	-14	103	103	-3
OCC1CCCN(c2ncnc3sc(-c4ccccc4)cc23)C1 (configuration not stated)	-32	107	102	107
CCCCCCCCCCCCCCCCCCOC[C@H](COP(=O)([O-])OCC[N+](C)(C)C)OC	-4	101&100	104&102	-12
CC(=O)Nc1ccc2nc(SCc3c(C)cc(C)cc3C)sc2c1	-5	100	101	0
Cc1ccc(NC(=O)c2ccco2)c(NC(=O)C(C)C)c1	7	99	100	-9
CC(C)NC(=O)C(C)n1cccc1C(=O)c1ccccc1 (configuration not stated)	-4	102	108	-8
Cc1c(C)n(C(=O)CN2CCN(c3ccc(F)cc3)CC2)c2ccccc12	7	100	102	1
Nc1nnnn1CC(=O)N/N=C/c1ccc(-c2cccc(Cl)c2)o1	4	102	102	-87
O=C(O)Cc1ccc2c(c1)[nH]c1ccccc12	13	102	104	138
CCN(CCN(C)C)Cc1ccc(NC(C)=O)cc1	-19	100	101	6
COc1cccc(/C=N/NC(=O)c2cccc(OC)c2)c1	-11	100	102	2
Cc1cccc(C(=O)Nc2ccc3[nH]c(=O)[nH]c3c2)c1	-16	101	94	.

# Among those listed so far, these have a CF3 group:
Compound	MenB inh	Polio RdRp inh	Polio RdRp inh intensity	MbtI inh
CCOC(=O)C(=NCc1ccco1)NNc1cccc(C(F)(F)F)c1	-19	106	106	-1
COc1oc(-c2ccc(F)cc2)nc1C(F)(F)F	-14	103	103	-3

# Other results follow:
Compound	MenB inh	Polio RdRp inh	Polio RdRp inh intensity	MbtI inh
O=C(O)c1ccccc1NCCO	.	101	96	88
CCOC(=O)Cc1nc2ccccc2[nH]1	-32	104	108	.
C=CCSc1nnc(NC(=O)CCNC(=O)c2ccco2)s1	-17	105	109	-3
O=C(Oc1ccccc1-c1cnc2ccccc2n1)c1ccc(F)cc1	-5	105	103	.
CCC1CCCCN1C(=O)c1cc(-c2ccc(C)cc2)on1 (configuration not stated)	-8	103	105	-8
CCc1nnc(SCc2cccc(OC)c2)c2cc3occc3n12	-17	102	103	-5
O=C(NCC1CCCO1)NC(=O)c1ccccc1 (configuration not stated)	-26	102	100	4
CC(=O)Nc1cccc(C(=O)NC(C)c2ccccc2)c1 (configuration not stated)	-33	106	101	1
C/C=C/C(=O)Oc1ccc(Cl)cc1	22	101	104	13
Cc1cccc2nc(Cn3c(=O)n(CCC(=O)NCc4ccco4)c(=O)c4sccc43)cc(=O)n12	-25	102	99	-1
Cc1ccc(S(=O)(=O)/N=C(\CN2CCOCC2)N2CCOCC2)cc1	-25	103	103	-6
CCc1cccc2c(C=C(C#N)C#N)cn(CC(=O)N3CCCCCC3)c12	-18	99	106	-2
CC(=O)Oc1cc(C)c2c(c1)oc(=O)c1ccccc12	-24	99	101	-31
N=C(N)N=Nc1ccc(O)cc1	8	99	101	40
CC1CN(P2(=O)C=C(c3ccccc3)OC(c3ccccc3)=C2)CC(C)O1 (configuration not stated)	-23	103	111	8
COc1cccc2cc(C(=O)NC3=C(C#N)CCC3)c(=O)oc12	-9	98	102	-3
O=C(Cn1c(=O)oc2ccccc21)N(C1CCCCC1)C1CCCCC1	-7	99	95	1
CCC(=O)OC1CSc2nc3ccccc3n2C1 (configuration not stated)	-10	104	101	-1
CCC(=O)c1ccc(OCC(=O)NC2(C#N)CCCCC2)cc1	-32	97	82	16
COc1ccc(NCC(=O)N/N=C/C2=CCC3CC2C3(C)C)cc1 (configuration not stated)	4	101	103	0
O=C(CSc1ncn[nH]1)Nc1ccccc1-c1ccccc1	.	102	101	-3
CC(C)NC(=O)c1ccc(NC2=NC3CS(=O)(=O)CC3S2)cc1 (configuration not stated)	0	102	103	-11
Fc1cccc(Cl)c1-c1nn[nH]n1	.	103	106	-8
N/N=C(\c1ccccc1)c1cc(Br)ccc1N	6	101	104	13
CCN1CCN(c2ccccc2N)CC1	-24	103	106	22
CC(C)Cn1[nH]c(CC(=O)NN)cc1=O	-8	100	103	11
Cc1nc(N)sc1C	-37	102	98	27
CC1(C)OC(=O)CC1C(=O)O (configuration not stated)	-20	102	102	-14
COc1ccccc1-c1noc(-c2cccc(Cl)c2)n1	-43	99	101	-5
S=c1[nH]nc(Cc2cccc3ccccc23)o1	-34	103	102	.
O=C(Cc1n[nH]c(=O)c2ccccc12)OCc1cc(=O)n2cc(Br)ccc2n1	6	104	100	6
CCn1ncc(C2=NOC(C(=O)NCC(C)C)C2)c1C (configuration not stated)	-5	104	104	-6
Cc1ccc(NC(=O)Cn2nnc(S(=O)(=O)c3ccc(C(C)(C)C)cc3)c2N)c(C)c1	-7	103	108	-5
c1ccc2c(c1)CC(N1CCOCC1)C2	0	100	103	-13
COc1ccc(-c2cc(OC(=O)c3ccccc3)cc3sc(=O)oc23)cc1	13	104	105	-2
CCOC(=O)C(O)(c1csc(N)n1)c1c(C)nn(-c2ccc(C)cc2)c1N (configuration not stated)	-4	100	106	-8
CC(C)N(Cc1nc(-c2ccccc2)no1)C(=O)C1CCCCC1	-3	99	105	-1
N=c1c(C(=O)NCc2ccco2)cc2c(=O)n3ccccc3nc2n1CCCO	-50	103	115	110
CCOC(=O)c1c(C(=O)OCC)c2n(c1-c1ccccc1)Cc1ccccc1-2	-20	100	102	92
Cc1c(C#N)c2nc3c(c(-c4ccccc4)c2n1-c1ccccc1)CCCC3	-11	104	108	3
O=C(C(=S)N1CCOCC1)c1c[nH]c2ccccc12	-22	101	100	24
O=C(/C=C/c1ccco1)Nc1ccccc1C(=O)c1ccccc1	-7	101	104	7
CC1CC(NC(=O)c2ncn[nH]2)CC(C)(C)C1 (configuration not stated)	11	101	100	-8
CCCCN(C)Cc1nc2ccccc2n1C	-3	101	100	8
c1ccc2sc(N3CCN(Cc4nnnn4C4CCCC4)CC3)nc2c1	2	106	102	-4
O=C(NC1CCCCC1)N(Cc1ccccc1)Cc1cc2cc3c(cc2[nH]c1=O)OCCO3	-3	100	100	-168
COc1ccc(C2=CC(=C(C#N)C#N)c3cc4c(cc3O2)OCO4)cc1	-24	99	101	-3
CCOc1cc(C(=O)OCC(=O)c2c(C)[nH]c3ccccc23)ccc1OCC(=O)N1CCOCC1	-4	109	113	-12
CC(=O)N1CCN(C(=O)CNc2cc(C(F)(F)F)ccc2OCC(F)(F)F)CC1	.	103	102	1
Cc1occc1-c1nnc(SCC(=O)c2ccc3c(c2)CCN3S(C)(=O)=O)n1C	-22	107	121	4
CCOC(=O)c1ccc(-n2cnc3c2C(=O)c2ccccc2C3=O)cc1	8	105	107	-9
N#Cc1ccc(Cl)cc1NC(=O)CSC(=O)c1ccccc1	.	99	100	25
Cc1cc(C)n(C(=O)CSc2ccc(C(C)(C)C)cc2)n1	-4	101	110	.
CN1CCC(OC(=O)COc2ccc(F)cc2)CC1	-6	104	102	-9
COCC(C)n1c(C)cc(C(=O)COC(=O)C2COc3ccccc3O2)c1C (configuration not stated)	-33	100	106	-9
N#Cc1ccccc1NC(=S)Nc1ccccc1	-7	97	93	11
N#CC(C#N)=C1c2cc(S(=O)(=O)N3CCCCC3)ccc2-c2ccc(S(=O)(=O)N3CCCCC3)cc21	-15	103	107	-8

# From PubChem BioAssay
